From PubChem BioAssay
Vaccinia mCherry: qHTS for Stage-Specific Inhibitors of Vaccinia Orthopoxvirus: mCherry Reporter Primary qHTS; Vaccinia virus mCherry reporter infection, fluorescence; about a quarter of the inactives have no number; Potency, µM (highest dose often 36.5 µM), for the others: at the top dose activity change, negative = inhibition, usual class: inhibitors; 310,000 tested, 0.63% active; AID 720579, 2013; active = well fitted inhibition curve with a large enough effect; inconclusive = small, poorly fitted or top-dose-only effect; inactive = no such curve, though single readings can be large or run the other way; tested in A549 cells; also: nearly all actives have a fitted effect of over 35% in size; inactives centre near -10
VACV Venus inh: qHTS for Stage-Specific Inhibitors of Vaccinia Orthopoxvirus: Venus Reporter Primary qHTS; Vaccinia virus Venus reporter expression, fluorescence; Potency, µM (top dose mostly 36.5 µM), without a hit: at the highest dose activity change, negative = inhibition, usual class: inhibitors; 330,000 tested, 0.46% active; active means well fitted inhibition curve with a large enough effect; inconclusive means small, poorly fitted or top-dose-only effect; inactive means no such curve, though single readings can be large or run the other way; tested in A549 cells; also: nearly all actives have a fitted effect of over 30% in size; inactives centre near -10
The depositor's hits bear a star; i = inactive; ? = inconclusive; . = not tested or not shown; & = joins results of further samples; [ ] = remark or other dose. % is scaled to controls: 0 for no effect and ±100 for the full control effect; potency is read from the fitted curve at half-maximal effect.

SMILES	Vaccinia mCherry	VACV Venus inh
CC(C)C[C@@H](CN1CCC[C@@H]1CN1C(=O)C(=O)NC[C@@H]1Cc1ccccc1)N1C[C@H](Cc2ccc(O)cc2)N(CC2CCCCC2)C(=O)C1=O	-2.6%	-16.0%
O=P(c1ccccc1)(c1ccccc1)C(O)c1ccc(Br)cc1 (configuration not stated)	i	-7.3%
COc1ccc(CNC(=O)c2ccc3nc(CCc4ccccc4)oc3c2)c(OC)c1	-11.7%	3.2%
Cc1cc(S(=O)(=O)NCc2ccccc2)ccc1OCC(=O)NCc1ccncc1	i	-17.3%
C[C@H]1CN([C@@H](C)CO)C(=O)c2cc(C#CC3(O)CCCC3)cnc2O[C@H]1CN(C)C(=O)C1CC1	i	-19.8%
Cc1ccc(-c2cc(C(=O)NCc3cccs3)no2)cc1	-15.2%	-9.3%
O=C(COC(=O)CCC(=O)c1ccc(Cl)cc1)NCC1CCCO1 (configuration not stated)	.	-5.5%
O=C(NC1CCCCC1)C1CC(=O)N(c2ccc(Cl)cc2)C1 (configuration not stated)	6.2%	-0.8%
CC(C)(C)OC(=O)C[C@@H]1C/C=C\C[C@H](CC(=O)N(CCO)Cc2ccccc2)C(=O)N[C@H](Cc2ccccc2)COC1=O	i	-17.3%
CCN(CC(=O)Nc1ccc(OC)cc1)C(=O)C1CC(=O)N(Cc2ccccc2)C1 (configuration not stated)	?	-3.1%
O=C(Nc1ccccc1)c1cc([N+](=O)[O-])ccc1Cl	-4.7%	-20.3%
COc1ccc(-c2nc3ccccc3c(=O)n2-c2c(C)n(C)n(-c3ccccc3)c2=O)cc1	i[7.34 µM]	-0.8%[7.34 µM]
CC12CS(=O)(=O)CC1SC(=S)N2c1ccccn1 (configuration not stated)	.	-9.3%
O=C(Cn1ncc(Cl)c(Cl)c1=O)c1ccc(Cl)cc1	-12.9%	4.0%
O=C(CSc1nccn(-c2ccc(F)c(Cl)c2)c1=O)NC1CCCC1	-6.8%	0.6%
C=CCC(c1ccccc1)N(C(C)=O)c1ccco1 (configuration not stated)	i	-10.8%
CCC(=O)c1ccc(OCC(=O)N2CCN(c3ccccn3)CC2)cc1	-1.9%	0.8%
Cc1ccc(NC(=O)C(Cc2ccccc2)n2cccc2)cc1 (configuration not stated)	?	-10.0%&0.9%
O=C(NCc1cccnc1)C1CCN(Cc2cc3ccccc3n2Cc2cccc(Cl)c2)CC1	-21.5%	-18.2%
COc1ccc(CN2C(=O)/C(=C/c3ccncc3)SC2=S)cc1	i	0.3%
O=C1C=C(c2cccc3c2oc2ccccc23)C[C@@H](c2ccc(F)cc2)C1	?	-16.9%
Cc1cc(/C=N/n2cnnc2)c(C)n1-c1cc(Cl)ccc1Cl	-9.8%	18.6%
Cc1ccc(-n2ncc(C(=O)N3CCN(Cc4ccccc4)CC3)c2C2CCN(C(=O)OC(C)(C)C)CC2)cc1	-21.0%	-29.3%
COc1ccc(N(CC(=O)NN=C2CCN(C)CC2)S(=O)(=O)c2ccccc2)c(OC)c1	-26.8%	-7.3%
O=C(Nc1ccc(F)c(Cl)c1)c1cc(C2CCCN(C(=O)C3CC3)C2)on1 (configuration not stated)	-15.8%	-12.8%
Cn1c(=S)[nH]c2cccnc21	i	-1.6%
O=c1[nH]c2ccc(Cl)cc2c(O)c1-c1ccccc1	.	-22.6%
CCCCCCNC(=O)c1c(O)c2ccccc2[nH]c1=O	-4.5%	-8.9%
COc1ccc(/C=C2\SC(=O)N(CCCC(=O)Nc3cc(Cl)ccc3C(=O)O)C2=O)cc1	i	-1.8%
Cc1cc(C)n(C(=O)CN2C(=O)c3ccccc3C2=O)n1	-16.0%	-5.3%
CCCCCC(=O)Nc1ccc(S(=O)(=O)Nc2cc(OC)nc(OC)n2)cc1	-10.0%	-12.6%
CCOC(=O)c1sc(C)c(C(=O)NC2CCCCC2)c1N	.	?
O=C(NCCn1ccc2ccccc21)C1CCCCC1	-13.7%	-7.9%
CC(C)S(=O)(=O)c1csc(NC(=O)Nc2ccc(Cl)cc2)c1	i	-9.5%
O=c1cc(CSc2nc3cc(Cl)ccc3o2)nc2sccn12	.	-8.0%
Cc1cc(NC(=O)C(C)Sc2nc(-c3ccccc3)cc(=O)[nH]2)no1 (configuration not stated)	-1.6%	-21.5%
CC(=O)OC1CC2C(C)(C)CCC(=O)[C@@]2(C)C2CC[C@@]3(C)C(c4ccoc4)OC(=O)C4OC43[C@]12C (some centres not stated)	-9.7%	-14.2%
CNC(=O)CSc1nnc(-c2cccnc2)n1-c1ccc(C)cc1	i	4.9%
CCOC(=O)Cc1csc(NC(=S)NC(=O)c2ccccc2C)n1	-14.3%	-8.2%
CCc1ccc(-c2nc3cc(NC(=O)c4ccc(F)cc4)ccc3o2)cc1	-9.0%	-1.8%
CC(Sc1nnc(NC(=O)c2cc3ccccc3oc2=O)s1)c1ccccc1 (configuration not stated)	-28.7%	-23.0%
Cc1onc(-c2ccccc2)c1C(=O)NC(=S)NNC(=O)c1ccco1	-20.4%	-11.1%
CCOC(=O)Cc1csc(/N=C/c2c(O)n(-c3ccc(C)cc3C)c(=O)c3ccccc23)n1	-11.1%	-3.0%
CCOC(=O)C1CCN(c2nc(-c3ccc(C)cc3)nc3ccccc23)CC1	-11.4%	-1.8%
CCOC(=O)C(NC(=O)CC)(Nc1ccc(S(=O)(=O)Nc2onc(C)c2C)cc1)C(F)(F)F (configuration not stated)	-4.7%	-8.7%
O=C(NNS(=O)(=O)c1ccccc1)c1ccncc1	-12.2%	-5.4%
Nn1c(SCc2cc([N+](=O)[O-])cc3c2OCOC3)nnc1-c1ccccn1	i	-3.1%
COc1ccc(-n2nnc(-c3nsc(NC(=O)c4ccc(C)c(C)c4)n3)c2C)cc1Cl	-26.7%	-14.8%
O=C(NC(=S)N1C[C@H]2C[C@H](C1)c1cccc(=O)n1C2)c1ccc(Cl)cc1	5.5%	-0.8%
CNc1nc2[nH]c(=O)c3c(c2s1)OC(N)=C(C#N)C3c1cccc(F)c1 (configuration not stated)	-19.9%	-5.6%
Cc1ccc(NC(=O)CN(C)Cc2nc3ccccc3c(=O)[nH]2)c(Br)c1	.	-15.1%
NC(=O)Cc1ccc(C(=O)c2ccc(Cl)cc2)s1	-15.4%	-2.7%
O=C(COC(=O)c1cncc(Br)c1)NCC12CC3CC(CC(C3)C1)C2	-8.5%	-9.2%
N=C1C(=O)OCC1c1ccccc1NC(=O)Nc1ccccc1 (configuration not stated)	i	-1.9%
O=C(Nc1ccc(S(=O)(=O)Nc2ccccc2)cc1)C1CC1	-26.7%	-21.0%
O=C(O)CC1C(=O)NCCN1Cc1ccc(F)c(F)c1 (configuration not stated)	-17.4%	-5.4%
Cc1cc(C)n(CC(=O)N2N=C(C(F)F)CC2(O)C(F)F)n1 (configuration not stated)	-21.1%	-4.0%
CNC(=O)c1ncoc1-c1ccc(Cl)cc1	-4.4%	-12.2%
CCC1(CC)C(=N)N(C)C(=O)NC1=O	-10.8%	-6.1%
CCN(Cc1ccccc1)S(=O)(=O)c1ccc(C(=O)Nc2nnc(C)o2)cc1	?	-10.1%

Compounds listed so far that have bromine, in the order listed:
SMILES	Vaccinia mCherry	VACV Venus inh
O=P(c1ccccc1)(c1ccccc1)C(O)c1ccc(Br)cc1 (configuration not stated)	i	-7.3%
Cc1ccc(NC(=O)CN(C)Cc2nc3ccccc3c(=O)[nH]2)c(Br)c1	.	-15.1%
O=C(COC(=O)c1cncc(Br)c1)NCC12CC3CC(CC(C3)C1)C2	-8.5%	-9.2%

Single records, as listed above. Order of values: Vaccinia mCherry, VACV Venus inh
`O=C1C=C(c2cccc3c2oc2ccccc23)C[C@@H](c2ccc(F)cc2)C1` in the list: ?, -16.9%
`Cc1cc(C)n(C(=O)CN2C(=O)c3ccccc3C2=O)n1` in the list: -16.0%, -5.3%
`COc1ccc(N(CC(=O)NN=C2CCN(C)CC2)S(=O)(=O)c2ccccc2)c(OC)c1` in the list: -26.8%, -7.3%
`CCC1(CC)C(=N)N(C)C(=O)NC1=O` in the list: -10.8%, -6.1%

Next section.
SMILES	Vaccinia mCherry	VACV Venus inh
COCCCNC(=O)c1nn(-c2ccc(C)cc2)c(=O)n(C)c1=O	1.9%	-1.8%
COC1=CC(=O)OC(c2cccc([N+](=O)[O-])c2)C1 (configuration not stated)	-7.9%	-7.6%
CN1CCc2c(sc3c2C(=O)NC(c2ccc4c(c2)OCO4)N3)C1 (configuration not stated)	-15.1%	-0.8%
COc1ccc(CNC(=O)c2ccc3nc(C)c(N(C)Cc4ccc(NC(C)=O)cc4)n3c2)cc1	?	-6.8%
CN(Cc1ccccc1)C(=O)COC(=O)c1ccc(-n2cnnn2)cc1	i	-12.7%
COc1ccc(CNC(=O)CCNS(=O)(=O)c2ccc(Cl)cc2)cc1	i	-4.6%
COc1cccc(/C=N/NC(=O)c2cc(-c3cccn3C)n[nH]2)c1O	3.98µM*	?
O=C(Cn1cc([N+](=O)[O-])cn1)Nc1cccnc1	-2.6%	3.0%
Cc1cccc(NC(=O)C(NS(=O)(=O)c2ccc3c(c2)oc(=O)n3C)C(C)C)c1 (configuration not stated)	-9.6%	-7.0%
O=C(CSc1nc2ccc(Cl)cc2[nH]1)NC1CCCc2ccccc21 (configuration not stated)	-6.8%	0.6%
COc1ccc(N2C(=O)/C(=C/c3cccnc3)NC2=S)cc1	-16.1%	-8.2%
CC(C)Cc1nnc(NC(=O)c2ccncc2)s1	-12.3%	-23.0%
CCC(NC(=O)c1cc(COc2c(F)cccc2F)on1)c1ccncc1 (configuration not stated)	i	-21.7%
NC(=O)CSc1nnc(-c2cnccn2)n1-c1ccccc1	.	3.2%
CC(C)OCCCNC(=O)c1ccc(C2SCC(=O)N2Cc2ccco2)cc1 (configuration not stated)	-4.6%	-7.2%
Cc1cc(C)nc(SCC(=O)Nc2ncc(Cc3ccc(Cl)c(Cl)c3)s2)n1	-12.9%	-6.0%
CCc1c(C)sc2nc(C(C)C)nc(SCC(=O)N3CCc4ccccc4C3)c12	28.8%	29.2%
COc1cc2cc(C(=O)NCCc3c[nH]c4ccccc34)c(N)nc2cc1OC	14.4%	7.0%
CCC(Oc1ccccc1)C(=O)Nc1ccc(O)c(-c2nc3cc(C)ccc3o2)c1 (configuration not stated)	i	-11.8%
CNc1ncnc2c1ncn2[C@H]1CN(Cc2ccc(Cl)cc2)C[C@@H](CO)O1	-7.9%	-3.4%
CCOc1ccc(Nc2nn(-c3ccc(OC(F)(F)F)cc3)nc2C(C)=O)cc1	-10.4%	-5.5%
Cc1nc(NC(=O)COC(=O)c2ccc(S(=O)(=O)N3CCc4ccccc4C3)cc2)c(Cl)cc1Cl	i	6.8%
O=C1c2ccccc2CCC12OC2c1ccc([N+](=O)[O-])cc1 (configuration not stated)	-11.7%	-11.1%
CCN(c1ccccc1)S(=O)(=O)c1ccc(NC(=O)c2ccco2)cc1	-8.8%	-4.3%
Cc1ccc(-n2nc(C(=O)NCc3ccc(F)cc3Cl)c3c4ccccc4n(C)c3c2=O)cc1	-9.6%	-13.2%
O=C(C(=O)N1CCOCC1)c1cn(Cc2ccccc2F)c2ccccc12	-13.5%	-10.9%
CC(C)=CCCC(C)CCO (configuration not stated)	-0.2%	-0.8%
CCOC(=O)C1C(=O)C=C(c2ccc(C)cc2)CC1c1ccc([N+](=O)[O-])cc1 (configuration not stated)	-15.9%	-20.5%
Cc1nn(-c2cc(N3CCCC3)ccc2[N+](=O)[O-])c(=O)c2ccccc12	?	-23.0%
CCOC(=O)c1c(-c2ccccc2)oc2ccc(NS(=O)(=O)c3cc(C)c(C)cc3C)cc12	-27.7%	-8.0%
CCOc1cc2[nH]c(=S)n(C3CC3)c(=O)c2cc1OCC	-4.2%	-14.2%
C#CCOCCOCCOCCNc1nc(N2CCN(C(=O)[C@H](CCC(=O)O)n3cc(CN)nn3)CC2)nc(N2CCN(C(=O)[C@H](CCC(=O)O)n3cc(CN)nn3)CC2)n1	-26.1%	-9.0%
CSc1ccc(C=NNc2ccc(S(=O)(=O)Nc3ccccc3C(=O)O)cc2[N+](=O)[O-])cc1	i	-9.9%
Cc1nc(NCc2cccnc2)c2c3c(sc2n1)CCCC3	-12.3%	-9.0%
Cc1cccc(C(CC(=O)O)NC(=O)C(F)(F)F)c1 (configuration not stated)	0.3%	-3.0%
COc1ccc(-c2cc(C(F)(F)F)n3nc(C(=O)NCc4ccco4)cc3n2)cc1	-9.7%	-14.9%
Cc1ccc(OCCCCn2nnc3sc4c(c3c2=O)CCCC4)cc1	-10.4%	-7.2%
CC(C)(C)OC(=O)NCCCC[C@H](NC(=O)c1nc[nH]c1C(=O)N1CCN(c2ccccc2)CC1)C(=O)OC(C)(C)C	-3.7%	?
Cc1ccc(F)c(S(=O)(=O)NC(=O)C2(C)CCN2C(=O)Cc2ccc(Cl)cc2Cl)c1 (configuration not stated)	3.0%	-1.4%
N#CCn1c(CN2CCCC2)nc2ccccc2c1=O	-3.6%	-0.4%
CCCNC(=O)C1(C)CCCN(Cc2noc(-c3c(C)noc3C)n2)C1 (configuration not stated)	9.7%	-10.6%
O=C(NC(=S)Nc1ccc(N2CCOCC2)c(Cl)c1)c1cccs1	i	-12.6%
C=CCNC(=O)CCCOc1cccc(C)c1	-10.1%	-4.7%
CCn1c(CSCc2ccc(F)cc2)nnc1SCC(=O)NCc1ccccc1	.	-13.6%
COc1ccc(C(=O)NCc2nnc(SCC(=O)N3CCc4ccccc43)n2CCc2ccccc2)cc1	-11.5%	-2.1%
CCN(CC)c1ccc(C=C2C(=O)OC(C)(C(C)(C)C)OC2=O)cc1 (configuration not stated)	-2.1%	-8.4%
